High-throughput results (PubChem BioAssay)
Beta apoptosis: inhibitors of cytokine-induced beta cell apoptosis, primary screen, luminescence; INS-1E cytokine-induced death, ATP luminescence, 48 h; percent of positive-control rescue, neutral wells zero; protection from apoptosis, % (test concentration not listed); hit rate 0.8% among 300,000; AID 435005, 2010;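 active means all replicates at 75% or more, or half of them and the mean; inconclusive means half reach 75% but not the mean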;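 further: 0% = cytokine-treated negative control wells and 100% = positive control rescue; higher means more ATP so stronger rescue from cytokine killing; wells of about 40 µL received 100 nL stock; the first replicate is given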
Ecoli rRNA inh: reduced GFP signal of wild-type E. coli, primary screen, bacterial rRNA inhibitor project, GFP/RFP fluorescence, OD600, single point; hit rate 1.6% among 350,000; E. coli WT GFP vs humanized-ribosome RFP mutants, 24 h; active compounds read low; DMSO median 0, no signal -100; GFP signal change (wild-type ribosome), % (concentration not given with the values); AID 720706, 2013;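 active means significant combined selectivity score with lowered wild-type GFP, culture density cut under 30%, mutant RFP and density less affected; inactive means any of these conditions unmet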; further: one replicate is shown; some compounds called inactive have numbers as strong as hits
Calb FLC: C. albicans growth inhibition with fluconazole, primary screen, CaCi-2 strain, Alamar Blue fluorescence | C. albicans CaCi-2 (fluconazole-resistant clinical isolate) + fluconazole, 48 h | growth inhibition, % (concentration not given with the values) | hit rate 0.57% among 300,000;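 active means most replicates above 75%; inconclusive means exactly half above 75%; inactive means most below 75%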;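 further: all wells also contain fluconazole at 8 µg/ml as a sub-toxic cotreatment; 0% = median of DMSO wells and 100% = median of geldanamycin control wells; wells of about 8 µL received 7.5 nL stock; the first replicate is given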
LANA-H2A inh: blockers of LANA interaction with H2A/H2B – biochemical, FP readout, HTS, primary screen. cell-free LANA-H2A/H2B peptide, fluorescence polarization. inhibition, % (concentration not given with the values). AID 2629, 2010. hit rate 0.6% among 320,000. Protein LANA1 (Human herpesvirus 8 type P (isolate GK18)), Q9QR71; in the data active means inhibition mostly above about 10%, no sharp cut-off; inactive means mostly below about 6.7%;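 further: stock transfer was 7.5 nL into about 10 µL; 0% = median of vehicle wells and 100% = median of positive control wells; one replicate is shown; the record names a cut of 25% in any replicate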
Target sequence (Q9QR71 whole entry, looked up): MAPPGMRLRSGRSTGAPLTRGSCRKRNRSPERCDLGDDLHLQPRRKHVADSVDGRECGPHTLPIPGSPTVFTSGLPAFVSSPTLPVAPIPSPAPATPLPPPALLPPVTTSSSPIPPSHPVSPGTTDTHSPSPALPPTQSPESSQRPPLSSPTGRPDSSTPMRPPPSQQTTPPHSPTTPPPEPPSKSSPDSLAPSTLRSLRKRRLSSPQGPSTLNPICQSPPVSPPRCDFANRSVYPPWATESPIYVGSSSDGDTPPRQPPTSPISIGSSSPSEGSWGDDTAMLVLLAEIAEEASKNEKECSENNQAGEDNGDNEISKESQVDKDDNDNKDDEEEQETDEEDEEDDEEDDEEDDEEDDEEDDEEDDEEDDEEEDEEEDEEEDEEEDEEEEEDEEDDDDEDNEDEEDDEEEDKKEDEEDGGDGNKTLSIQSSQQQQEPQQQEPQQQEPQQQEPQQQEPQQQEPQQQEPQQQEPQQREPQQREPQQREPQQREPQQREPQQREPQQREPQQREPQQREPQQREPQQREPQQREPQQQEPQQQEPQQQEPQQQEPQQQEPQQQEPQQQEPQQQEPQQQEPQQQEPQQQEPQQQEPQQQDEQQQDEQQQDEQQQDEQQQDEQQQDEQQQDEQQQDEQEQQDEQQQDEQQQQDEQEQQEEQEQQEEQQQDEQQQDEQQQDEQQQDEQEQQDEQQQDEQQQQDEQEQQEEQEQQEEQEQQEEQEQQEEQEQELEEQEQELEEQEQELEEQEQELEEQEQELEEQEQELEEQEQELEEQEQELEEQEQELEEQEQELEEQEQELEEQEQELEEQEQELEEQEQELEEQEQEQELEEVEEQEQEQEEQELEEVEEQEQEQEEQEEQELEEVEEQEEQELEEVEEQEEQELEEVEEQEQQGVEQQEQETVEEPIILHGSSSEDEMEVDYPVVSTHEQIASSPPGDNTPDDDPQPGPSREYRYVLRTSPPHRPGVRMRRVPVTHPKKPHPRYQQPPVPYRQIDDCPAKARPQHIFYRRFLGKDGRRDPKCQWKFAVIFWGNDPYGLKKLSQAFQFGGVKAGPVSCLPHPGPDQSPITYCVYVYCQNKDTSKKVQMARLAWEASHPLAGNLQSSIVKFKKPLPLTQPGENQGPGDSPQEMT
ALR H2O2 inh: inhibitors of human ALR sulfhydryl oxidase, primary screen, biochemical, H2O2 detection, HRP-luminol luminescence, single point; FAD-linked sulfhydryl oxidase ALR (Homo sapiens), P55789; purified ALR, DTT oxidation; inhibition, % (no concentration beside the values); hit rate 3.8% among 290,000;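 active means mean and each replicate at 75% or more; inconclusive means only one of the two met; inactive means neither met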;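 further: stock transfer was 7.5 nL into about 7.5 µL; 0% = neutral wells and 100% = wells with inactivated enzyme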
A1 inh: caspase 3/7 activation in MEF A1-2A-BIM cells, primary screen, A1 inhibitor project, cell-based, luminescence, HTS | Caspase-Glo 3/7 luminescence, 3 h; percent of clofoctol response, vehicle zero | caspase activation, % (test concentration not listed) | hit rate 0.066% among 330,000 | AID 2462, 2010;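 active means over half of replicate activation scores above 10%, or exactly half above 10 with the replicate mean above 10; inconclusive means replicate mean below 10 yet half the replicates above 10; inactive means over half of replicates below 10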;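 further: wells of about 30 µL received 50 nL stock; many hits fall short of the cut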
T cruzi inh: inhibitors of intracellular T. cruzi growth, primary screen, luminescence, NIH3T3 host cells | T. cruzi beta-gal in NIH3T3, 90 h | inhibition, % (no concentration beside the values) | hit rate 1.4% among 300,000;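 active means mean inhibition across valid replicates above about 55%, limit read from the data; inconclusive means mean below that limit but half or more replicates reach it; inactive means mean below it, under half of replicates reach it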;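 further: signal also drops with host cell toxicity which is not excluded here; 0% = plate median of DMSO wells and 100% = zero luminescence signal; higher percent means less beta-gal luminescence so fewer parasites; stock transfer was 50 nL into about 50 µL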
Beta2AR agonist: beta2AR agonists driving receptor internalization, primary screen, cell-based, FAP fluorogen, flow cytometry. response, % (concentration not given with the values). Am2.2-beta2AR cells; reference of the scale not given here. Beta-2 adrenergic receptor (Homo sapiens), P07550. hit rate 0.43% among 340,000;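 active means response above a set limit, near 3 SD of response in nonfluorescent compounds, cut at about 42% in these data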;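 further: stock transfer was 100 nL into about 11 µL; a reference agonist was the positive control; negative values mostly stem from fluorescent compounds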
Ecoli rRNA inh OD600: also measured in Ecoli rRNA inh; calls as there; OD600 change, %; measured here: OD600 growth;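 optical density of the mix in the first replicate; 0 = DMSO median and -100 = no signal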
Ecoli rRNA inh RFP: recorded beside Ecoli rRNA inh, whose call it bears; RFP signal change, %; measured here: RFP humanized mutant strains;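 first replicate; 0 = DMSO median and -100 = no signal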
* = called active by the depositor; ? = inconclusive; · = no result given. This is a subset; rates above refer to the full screens.

The first two compounds (preview)
Fields: Beta apoptosis | Ecoli rRNA inh | Ecoli rRNA inh OD600 | Ecoli rRNA inh RFP | Calb FLC | LANA-H2A inh | ALR H2O2 inh | A1 inh | T cruzi inh | Beta2AR agonist
> COc1cc(OC)cc(OC(=O)c2cccc(S(=O)(=O)N3CCN(C)CC3)c2)c1
  -2 | 4 | -3 | 1.0 | 1 | 0.9 | 2 | 0.5 | -2 | -2
> CCOC(=O)c1ccccc1NS(=O)(=O)c1ccc(S(=O)(=O)N2CCCC2)cc1
  9 | -3 | -12 | 5.2 | -2 | -3.4 | -14 | 0.6 | 7 | 2

This part in full, from the first entry:
Fields: Beta apoptosis | Ecoli rRNA inh | Ecoli rRNA inh OD600 | Ecoli rRNA inh RFP | Calb FLC | LANA-H2A inh | ALR H2O2 inh | A1 inh | T cruzi inh | Beta2AR agonist
> COc1cc(OC)cc(OC(=O)c2cccc(S(=O)(=O)N3CCN(C)CC3)c2)c1
  -2 | 4 | -3 | 1.0 | 1 | 0.9 | 2 | 0.5 | -2 | -2
> CCOC(=O)c1ccccc1NS(=O)(=O)c1ccc(S(=O)(=O)N2CCCC2)cc1
  9 | -3 | -12 | 5.2 | -2 | -3.4 | -14 | 0.6 | 7 | 2
> Cc1cc(C(=O)COC(=O)c2ccc[nH]c2=O)c(C)n1-c1ccc(Br)cc1
  -5 | · | · | · | 26 | 3.8 | 54 | 0.5 | -9 | -4
> COc1ccc([C@@H]2CC=C(C(=O)O)[C@H](c3ccc(Cl)cc3)N2S(=O)(=O)c2ccccc2C)cc1
  1 | -31 | -34 | -9.6 | · | -2.9 | 7 | 0.1 | · | 3
> NC1=NC(c2cn[nH]c2-c2cccc(F)c2)n2c(nc3ccccc32)N1 (stereo not drawn)
  -5 | -1 | 5 | 0.5 | -1 | -2.0 | · | -0.4 | 11 | 2
> O=C(O)c1cnn(-c2nc(-c3ccc(F)cc3)cs2)c1C(F)(F)F
  · | -18 | -49 | -9.7 | 13 | -3.0 | 30 | 0.7 | -8 | 18
> Cc1ccc(C)c(NC(=O)NNC(=O)c2cc3occc3[nH]2)c1
  -5 | 7 | 11 | 1.3 | 47 | -2.3 | 4 | 2.1 | 3 | -3
> CC(C)(C)c1ccc(C(=O)NCCC(=O)NC2=NCCS2)cc1
  -8 | -8 | -8 | -1.7 | · | 11 | 0 | -0.1 | · | -7
> O=C1N[C@@H](Cc2ccccc2)COC(=O)[C@@H](Cc2ccc(F)cc2)CC/C=C/C[C@@H]1CC(=O)N(CCO)Cc1ccccc1
  -3 | 8 | -5 | 14 | · | -8.7 | -1 | 0.4 | · | 7
> COc1ccc(CC(=O)OCC(=O)c2ccc(OC)c(OC)c2)cc1
  -4 | -1 | 0 | 1.1 | · | 5.7 | -4 | -0.5 | · | 2
> Cc1cc(=O)[nH]c(SCC(=O)Nc2ccc(Cl)cn2)n1
  -4 | -1 | 0 | -2.5 | 6 | -9.4 | -15 | -1.4 | -1 | 1
> CSc1cccc(NC(=O)c2cccc3cccnc23)c1
  3 | -3 | -18 | -5.1 | -7 | 6.6 | -54 | 0.2 | 5 | 1
> COc1ccc(NC(=O)CCN2CC(C)OC(C)C2)c(OC)c1 (stereo not drawn)
  -5 | · | · | · | -5 | -3.0 | -15 | -0.7 | 8 | 6
> O=C(NN1CCCCC1)c1cnn2c(C(F)F)cc(-c3ccccc3)nc12
  4 | 5 | -1 | -0.1 | -3 | 2.6 | -5 | -0.4 | 16 | -22
> CCc1ccc(S(=O)(=O)c2n[nH]n3c2nc(=O)c2ccccc23)cc1
  3 | -24 | -36 | -12 | 35 | -15 | 0 | -0.3 | -13 | -8

Record cards (already shown):
CC(C)(C)c1ccc(C(=O)NCCC(=O)NC2=NCCS2)cc1 is listed as Beta apoptosis = -8; Ecoli rRNA inh = -8; Ecoli rRNA inh OD600 = -8; Ecoli rRNA inh RFP = -1.7; Calb FLC = ·; LANA-H2A inh = 11; ALR H2O2 inh = 0; A1 inh = -0.1; T cruzi inh = ·; Beta2AR agonist = -7
COc1ccc(NC(=O)CCN2CC(C)OC(C)C2)c(OC)c1 (stereo not drawn) is listed as Beta apoptosis = -5; Ecoli rRNA inh = ·; Ecoli rRNA inh OD600 = ·; Ecoli rRNA inh RFP = ·; Calb FLC = -5; LANA-H2A inh = -3.0; ALR H2O2 inh = -15; A1 inh = -0.7; T cruzi inh = 8; Beta2AR agonist = 6

Later entries:
Fields: Beta apoptosis | Ecoli rRNA inh | Ecoli rRNA inh OD600 | Ecoli rRNA inh RFP | Calb FLC | LANA-H2A inh | ALR H2O2 inh | A1 inh | T cruzi inh | Beta2AR agonist
> CC(=O)N(/N=C1\Sc2ccccc2C1=O)c1ccccc1C
  -3 | · | · | · | 0 | -6.0 | · | 0.4 | -3 | 5
> CSc1ccccc1NC(=S)Nc1cccc(C(F)(F)F)c1
  -5 | · | · | · | -1 | 3.2 | · | 0.0 | 1 | 23
> CCOC(=O)c1[nH]c(C)c(C(=O)OC)c1C
  -9 | -2 | -8 | 0.4 | 6 | 5.8 | 0 | 0.5 | -2 | -5
> C=CCn1c(SCC(=O)N2CCOCC2)nc2sc(C)c(C)c2c1=O
  1 | -2 | -11 | -0.3 | -6 | 4.6 | · | 0.5 | 12 | -6
> CCCCS(=O)(=O)N1CCC(C(=O)Oc2ccc(Cl)cc2)CC1
  -4 | 4 | 2 | -0.7 | 0 | -3.1 | 0 | 0.1 | 3 | 5
> O=C1CCCC(O)=C1N=Nc1ccc(C(=O)O)cc1
  -2 | -4 | 12 | -1.1 | 5 | 0.6 | · | 0.8 | -7 | -1
> COc1cc2c(cc1OC)C(c1ccc(Br)cc1)NCC2 (stereo not drawn)
  0 | 2 | -1 | 0.3 | 12 | -3.4 | -1 | 0.1 | 57* | 13
> CCCCCc1nc2sc3c(c2c(=O)n1NC(=O)c1ccc([N+](=O)[O-])cc1)CC(C)(C)OC3
  -7 | -5 | -3 | -0.3 | 50 | -8.0 | 0 | ? | -24 | 13
> OC[C@@H](O)[C@@H](O)[C@H](O)[C@H](O)CO
  -1 | · | · | · | 2 | 2.0 | 0 | 2.8 | -6 | 0
> Cc1c(C(=O)OCC(=O)N2CC(=O)Nc3ccccc32)oc2ccc(Br)cc12
  10 | · | · | · | 3 | 3.4 | 2 | 0.1 | -10 | 4
> CCCC(C)NC(=O)c1ccc2[nH]c3c(c2c1)CC(C)CC3 (stereo not drawn)
  1 | · | · | · | · | 0.0 | 12 | 0.7 | · | 7
> Cc1ccc(CN(CC(=O)NC2CCCCC2)C(=O)c2csnn2)cc1
  -4 | -4 | -2 | 3.3 | -1 | 1.3 | 2 | 1.0 | 1 | -8
> O=C(COC(=O)/C=C/c1ccc(Cl)cc1)Nc1ccccc1-c1ccccc1
  1 | · | · | · | -1 | -3.1 | -26 | 0.3 | -1 | 5
> Cc1ccc(NS(=O)(=O)c2ccc3c(c2)CC(=O)N3)cc1F
  4 | -10 | -9 | -3.1 | · | -1.8 | · | -0.5 | · | 2
> CCOC(=O)N1CCN(C(=O)COC(=O)CNC(=O)c2ccc(C)cc2)CC1
  -1 | 14 | 10 | 5.0 | 1 | 2.8 | -1 | 2.0 | -11 | 16
> CCOC(=O)N1CCC(N2C(=O)c3ccccc3C2Nc2ccc3c(C)cc(=O)oc3c2)CC1 (stereo not drawn)
  5 | -3 | -18 | -3.1 | 3 | 1.4 | -3 | -0.2 | -5 | 20
> O=C(NCc1ccc(Cl)cc1)c1ccc(CNc2c(N3CCCC3)c(=O)c2=O)cc1
  · | 10 | -2 | -5.6 | -1 | · | · | · | -8 | 3
> CCOC(=O)c1sc(NC(=O)CSc2ncn[nH]2)c(C#N)c1C
  10 | · | · | · | 3 | -4.2 | 1 | -0.3 | -19 | 0
> CCCn1cc(S(=O)(=O)CC(=O)Nc2ccc(OCC)cc2)c2ccccc21
  -9 | · | · | · | · | 0.8 | -7 | 1.2 | · | 4
> CNC(=O)c1nnc(Cc2ccc(F)cc2)o1
  · | 5 | 6 | -0.5 | 0 | -3.1 | -14 | 0.8 | -9 | 0
> CC(=O)NCCc1cc2cc(C)c(C)cc2[nH]c1=O
  -4 | · | · | · | 7 | -4.9 | 30 | 0.7 | -30 | 12
> COc1cccc(NC(=O)c2cc([N+](=O)[O-])ccc2N2CCN(C)CC2)c1
  1 | -2 | 2 | 1.4 | ? | 4.4 | -1 | 0.0 | -3 | -1
> CC(=O)NC(CC(=O)NC1CCCCC1)c1ccccc1 (stereo not drawn)
  -4 | · | · | · | 1 | -0.2 | 0 | 1.2 | -21 | 1
> COc1ccc(C2=NN(c3nc(C(=O)O)cs3)C(O)(C(F)(F)F)C2)c(OC)c1 (stereo not drawn)
  3 | -12 | -31 | -1.4 | 59 | -2.2 | 4 | 0.3 | -2 | 8
> O=C(c1ccc2c(=O)n3c(nc2c1)CCC3)N1CCN(S(=O)(=O)c2cccc(F)c2)CC1
  3 | 9 | 13 | 3.1 | 0 | 5.9 | -1 | -0.4 | 2 | -6
> Cc1nnc(SCc2ccc(C(=O)Nc3cc(Cl)ccc3C)cc2)s1
  · | · | · | · | -36 | -2.0 | -7 | 1.5 | 23 | -11
> CCOc1ccc(N=C2C(=O)N(CN3CCOCC3)c3ccccc32)cc1
  -6 | · | · | · | -51 | -4.5 | 20 | -0.9 | 12 | 0
> COc1ccccc1Oc1coc2c(CN(C)C)c(O)ccc2c1=O
  -9 | · | · | · | -3 | -0.4 | · | 0.4 | 10 | 11
> COc1ccc(OC)c(/C=N/NC(=O)c2ccc3nc[nH]c3c2)c1
  1 | 8 | -1 | 0.5 | -17 | -7.4 | -5 | 0.4 | 0 | -5
> COc1ccc(NC(=S)N2CCc3cc(OC)c(OC)cc3C2)cc1
  -3 | -2 | -9 | 2.2 | 2 | -3.6 | -7 | 0.3 | -4 | 2
> CCCCC(O)(CCCC)C(=O)NN(C(=O)OC)c1ccc(C)cc1
  -3 | · | · | · | 4 | 6.3 | 2 | 0.3 | -8 | -1
> COc1cc(S(=O)(=O)NCC2CCCO2)c(OC)cc1Cl (stereo not drawn)
  0 | · | · | · | -4 | -2.0 | · | 0.4 | -3 | -1
> O=C(CSc1nnc2ccccn12)Nc1ccccc1C(=O)O
  · | 14 | 13 | 0.4 | ? | -4.6 | -2 | -0.9 | 18 | -3
> Cc1ccc(C)c(C(=O)CN2C3=NCCCN3c3ccccc32)c1
  9 | · | · | · | -6 | 4.5 | 0 | -0.3 | 36 | -7
> O=C(NCCN1CCOCC1)c1cccs1
  -4 | · | · | · | 10 | 1.0 | 10 | 1.5 | -9 | -1
